From PubChem
KCNQ2 pot: potentiators of rat KCNQ2 potassium channel. Potassium voltage-gated channel subfamily KQT member 2 (Rattus norvegicus), O88943. CHO-K1 KCNQ2, FluxOR thallium flux fluorescence; hits give high values. B-score at 10 µM. 0.54% of 310,000 active;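 active = fluorescence ratio B-score at least 3 SD of library B-scores, with initial fluorescence B-score within 3 SD, cut at about 5.3 in these data; same plate scores as AID 2156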;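 note: B-score of peak minus minimum over baseline fluorescence ratio after K+ and Tl+ stimulus; positive B-score means potentiation of KCNQ2 with more thallium influx and brighter signal; only the inactives scoring about 0 or higher are listed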
Target sequence (O88943 whole entry, looked up): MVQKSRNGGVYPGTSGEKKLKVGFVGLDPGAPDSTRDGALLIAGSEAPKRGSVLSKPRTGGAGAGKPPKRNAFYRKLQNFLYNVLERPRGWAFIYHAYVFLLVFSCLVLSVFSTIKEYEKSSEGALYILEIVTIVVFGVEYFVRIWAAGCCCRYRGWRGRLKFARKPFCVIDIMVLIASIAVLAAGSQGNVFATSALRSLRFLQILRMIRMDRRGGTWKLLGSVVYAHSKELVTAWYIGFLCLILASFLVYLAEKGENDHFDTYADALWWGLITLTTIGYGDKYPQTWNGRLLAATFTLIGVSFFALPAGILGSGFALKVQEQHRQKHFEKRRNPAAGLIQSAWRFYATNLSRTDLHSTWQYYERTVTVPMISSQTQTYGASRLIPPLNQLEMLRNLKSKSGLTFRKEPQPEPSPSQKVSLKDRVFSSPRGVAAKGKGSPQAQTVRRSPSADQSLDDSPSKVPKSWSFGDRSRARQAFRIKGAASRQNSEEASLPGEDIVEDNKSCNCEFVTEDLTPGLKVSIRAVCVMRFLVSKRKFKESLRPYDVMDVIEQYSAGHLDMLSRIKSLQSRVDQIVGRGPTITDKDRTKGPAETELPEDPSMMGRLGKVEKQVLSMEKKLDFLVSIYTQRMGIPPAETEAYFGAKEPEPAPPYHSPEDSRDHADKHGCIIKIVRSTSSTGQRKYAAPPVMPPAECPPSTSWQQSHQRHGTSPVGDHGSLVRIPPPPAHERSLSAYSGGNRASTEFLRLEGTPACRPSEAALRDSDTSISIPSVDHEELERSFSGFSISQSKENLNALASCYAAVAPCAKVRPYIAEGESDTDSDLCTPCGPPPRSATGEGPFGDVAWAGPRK
KCNQ2 pot baseline: recorded beside KCNQ2 pot, whose call it bears; B-score; compound at 10 µM; measured here: initial fluorescence intensity artifact check;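 brightness before thallium and not channel activity; 0 = typical well and far values either way flag optical interference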
Numbers without * were called inactive. This is a subset; rates above refer to the full screens.

SMILES	KCNQ2 pot	KCNQ2 pot baseline
CC(=O)c1ccc(OCC(O)CN2CCC(C)CC2)cc1 (stereo not given)	0.06	0.47
O=C(Nc1ccc(N2CCOCC2)cc1)C1CC(=O)N(c2ccc(Cl)cc2)C1 (stereo not given)	0.09	0.6
COc1ccc(Cl)cc1C(=O)Nc1cccnc1Cl	1.4	-0.09
Cc1cccc(NC(=S)NC2CC3CCCC(C2)N3Cc2cccs2)c1 (stereo not given)	0.16	-1.4
C[C@H]1CCC[C@@]2(O[C@@H](CCO)C[C@@H](O)[C@@H]2O)O1	0.69	1.4
C=CCNc1nc(C(=O)OCC(=O)Nc2c(Cl)cccc2C(F)(F)F)cs1	0.42	-1.3
CC1=CC(C)(C)NC(=S)N1c1ccccc1C	0.06	0.53
COc1ccc(S(=O)(=O)N2CCN(C3Cc4ccccc4C3)CC2)cc1	0.79	-0.03
CC1CC(C)CN(C(=S)SCc2nc(N)nc(Nc3ccccc3)n2)C1 (stereo not given)	2.1	-0.72
CC(=O)Nc1ccc(S(=O)(=O)Nc2cccn(Cc3ccc(C)cc3)c2=O)cc1	0.27	-0.89
Oc1ccc2ccccc2c1/C=N/c1nccs1	2.2	-1.8
O=C(CN1CCNCC1)Nc1ccc(Oc2ccccc2)cc1	0.47	-0.02
CCOC(=O)N1CCC(NC(=O)CNS(=O)(=O)c2ccc(Br)s2)CC1	0.73	-1.1
CSc1nnc(NC(=O)c2nc(S(=O)(=O)Cc3ccc(C)cc3)ncc2Cl)s1	10*	-0.21*
CCC(=O)Nc1nnc(/C=C/c2ccc(OC)cc2)s1	1.1	-1.9
COCCNC(=O)c1ccc(C(=O)C(=O)c2ccccc2)cc1	0.5	-1.6
O=C(NC(=S)Nc1ccccc1)c1cccs1	4.3	1.6
COc1ccc(NC(=O)Cn2c(C)cc(=O)c3ccccc32)cc1	0.15	1.6
COc1ccc(-c2nc3c(c(SCC(=O)N4CCOCC4)n2)COC(C)(C)C3)cc1	0.77	-0.96
O=C(NCCS(=O)(=O)NCc1ccc(Cl)cc1)c1ccccc1	0.48	-4.2
Cc1ccc(C)c(C(=O)CC2(O)C(=O)Nc3ccccc32)c1 (stereo not given)	0.95	-0.26
COC(=O)C1=C(C)NC(=O)/C1=C\c1cc(C)n(-c2ccccc2F)c1C	0.13	0.63
CCn1c(N2CCN(S(=O)(=O)c3ccc(F)cc3)CC2)nc2ccccc21	0.05	0.55
O=C(CN1C(=O)c2ccccc2C1=O)Nc1ccccc1C(=O)NC1CCCCC1	1	1.2

Compound profiles, from the list above. Order of screens: KCNQ2 pot, KCNQ2 pot baseline
`O=C(CN1CCNCC1)Nc1ccc(Oc2ccccc2)cc1` reads 0.47, -0.02
`CC1CC(C)CN(C(=S)SCc2nc(N)nc(Nc3ccccc3)n2)C1` (stereo not given) reads 2.1, -0.72
`COCCNC(=O)c1ccc(C(=O)C(=O)c2ccccc2)cc1` reads 0.5, -1.6

Remaining list, next part.
SMILES	KCNQ2 pot	KCNQ2 pot baseline
Cc1ccn(CCC(=O)NC2CC(C)(C)Cc3c2cnn3-c2ccccc2C)n1 (stereo not given)	0.51	-0.87
Cc1oc2ccc(OCc3ccccc3Cl)cc2c1C(=O)O	2.9	1.6
O=C(NCCC1=CCCCC1)c1ccc(CN2CCOCC2)cc1	0.02	-0.63
CCC(C)(C)NC(=O)c1ccc(S(=O)(=O)N2CCCCCC2)cc1	1.5	0.1
Cc1cccc(OCCCC(=O)Nc2ccc(S(=O)(=O)Nc3nccs3)cc2)c1C	0.59	0.01
Cc1ccc2c(c1)C1C=CCC1C(C(=O)O)N2 (stereo not given)	0.09	0.02
CN(C)c1ccc(C(=S)N2CCCC2)cc1Br	1.3	0.02
CC(Cl)C(=O)Nc1c2c(nn1-c1ccccc1)CSC2 (stereo not given)	0.72	0.19
COc1ccccc1NC(=O)NCC1(N(C)C)CCCCC1	1.3	-0.09
CCC1(C)Cc2c(sc3[nH]c(=S)[nH]c(=S)c23)CO1 (stereo not given)	0.38	2.8
O=C(Cc1ccc(Cl)cc1)Nc1ccccc1N1CCOCC1	0.05	-0.42
Clc1ccccc1Cn1nnc2c(NCCN3CCOCC3)ncnc21	1.6	0.02
Nc1ccccc1N=Cc1ccc(-c2cccc(Cl)c2)o1	0.71	0.21
Cc1ccc(-c2nnn(CC(=O)N3CCCc4ccccc43)n2)cc1	0.01	-1.5
COc1ccc(F)cc1C(=O)C1CCCN(C(=O)CCN2CCCCO2)C1 (stereo not given)	0.22	-0.09
CCCCOC(=O)/C(=C\c1ccc([N+](=O)[O-])o1)NC(=O)c1ccccc1	0.48	-1.2
NC(=O)NNC(=S)Nc1cccc2ccccc12	0.88	0.51
O=C(Nc1nnc(SCc2ccc(Cl)cc2)s1)c1cnccn1	0.01	1.1
C=CCN(C)NC(=S)Nc1ccccc1	1.9	-0.35
COC(=O)C1=C(C(=O)OC)[C@@H]2N(Cc3ccccc3)c3ccccc3[C@@]23C[C@@H](C(=O)OC)N=C3N1	0.05	-2.4
Cc1nc2ccccn2c1C(=O)N/N=C/c1ccc(F)cc1	2.5	-0.51
Cc1cc(S(=O)(=O)Nc2cccc(O)c2)c(C)s1	1.5	-3.3
CCSc1nnc(NC(=O)c2c(-c3ccccc3Cl)noc2C)s1	2.1	-0.13
Cc1ccc(C(=O)N2CCCC2)cc1S(=O)(=O)Nc1cccc(C)c1C	0.33	1.7
Cc1nnc(SCC(=O)Nc2ccc3c(c2)OCCO3)n1N	0.6	-0.01
O=C(OCCN1CCOCC1)c1ccc(Cl)cc1Cl	1.3	-0.16
CC(=O)c1cc2c(cc1NC(=O)CN1CCCCCCC1)OCO2	2	-1.5
Cn1ncc(Cl)c1C(=O)N1CCN(c2ccc(F)cc2)CC1	0.37	-1.6
CC(=C\c1ccccc1)/C=C1/SC(=O)N(CCCC(=O)Nc2ccc(C(=O)O)cc2)C1=O	0.45	-0.96
COc1ccc(CCNC(=O)C2CCN(C(=O)c3ccc(Br)cc3)CC2)cc1OC	2	0.03
O=[N+]([O-])c1cc(O)c2ncccc2c1	10*	-0.4*
Cc1[nH]c2ccc(C(=O)Nc3ccncc3)cc2c1C	0.15	1.4
NC(=O)CSc1nnc(NC(=O)c2cccc(S(=O)(=O)N3CCCCC3)c2)s1	1.2	0.86
O=C(OCc1cc(=O)n2c(n1)sc1ccccc12)c1ccc(O)cc1O	0.37	0.18
CC1CCC(NC(=O)c2ccc(N3CCCC3=O)cc2)CC1 (stereo not given)	0.79	1
CCOC(=O)C1(Cc2ccccc2)CCCN(S(=O)(=O)N(C)C)C1 (stereo not given)	0.22	-0.54

The last seven records of the part above lead into the next.
SMILES	KCNQ2 pot	KCNQ2 pot baseline
COc1ccc(CCNC(=O)C2CCN(C(=O)c3ccc(Br)cc3)CC2)cc1OC	2	0.03
O=[N+]([O-])c1cc(O)c2ncccc2c1	10*	-0.4*
Cc1[nH]c2ccc(C(=O)Nc3ccncc3)cc2c1C	0.15	1.4
NC(=O)CSc1nnc(NC(=O)c2cccc(S(=O)(=O)N3CCCCC3)c2)s1	1.2	0.86
O=C(OCc1cc(=O)n2c(n1)sc1ccccc12)c1ccc(O)cc1O	0.37	0.18
CC1CCC(NC(=O)c2ccc(N3CCCC3=O)cc2)CC1 (stereo not given)	0.79	1
CCOC(=O)C1(Cc2ccccc2)CCCN(S(=O)(=O)N(C)C)C1 (stereo not given)	0.22	-0.54
Cc1sc2nc(-c3ccncc3)[nH]c(=O)c2c1-c1ccccc1	0.02	0.29
COc1ccc(C(=O)NCc2nnc(SCC(=O)N3CCC(C)CC3)o2)cc1	0.48	-0.03
O=C(Nc1ccncc1)c1c(Cl)cccc1Cl	0.67	-0.37
O=C(NCCO)c1ccc(-c2nnc(Nc3ccc(O)cc3)c3ccccc23)cc1	0.22	0.6
CN(Cc1ccccc1)C(=O)COC(=O)c1ccc(=O)n(Cc2ccccc2)n1	1.1	1
COCCN(Cc1ccccc1)C(=O)C1CCN(S(=O)(=O)c2ccc(OC)c(OC)c2)CC1	0.12	-0.16
N#C/C(=C(/O)CN1CCCCC1)c1nc(-c2ccc(Cl)cc2)cs1	1.2	-1.7
COCCOC(=O)C1=C(C)N(c2ccccc2)C(=O)NC1c1cccc([N+](=O)[O-])c1 (stereo not given)	0.16	0.89
Cc1ccc(S(=O)(=O)NCCC(=O)NCc2ccccc2)cc1	0.85	-0.2
CCc1ccc(/C=C2\SC(=S)N(CCCC(=O)Nc3ccc(C(=O)O)cc3)C2=O)cc1	2.5	-1.2
Cc1ccc(-n2c(O)c(C=NCc3ccccn3)c3ccccc3c2=O)cc1C	0.69	0.07
N/C(=N\OC(=O)c1ccccc1Br)c1cccc([N+](=O)[O-])c1	0.98	0.34
Cc1ccc(C(=O)N/C(=C/c2ccco2)C(=O)Nc2cccc(C(=O)O)c2)cc1	0.91	-0.13
O=S(=O)(Nc1ccc2c(c1)nc1n2CCN(Cc2ccccc2)C1)c1ccccc1	0.2	0.29
CCn1c(SCC(=O)c2[nH]c(C)c(C(C)=O)c2C)nnc1-c1cccs1	0.83	0.6
CCOC(=O)N1CCN(C(=O)CSc2nnc(-c3ccccc3OC)o2)CC1	1.7	0.3
O=S(=O)(c1cccc(F)c1)N1CCN(C(=S)NCC2CCCO2)CC1 (stereo not given)	1.2	0.04
C=CCOc1ccc(/C=C2/C(=N)N3N=C(CC(=O)N4CCCC4)SC3=NC2=O)cc1OC	0.31	-2.1
Cc1ccccc1-n1c(SCC(=O)N2CCOCC2)nc(O)cc1=O	0.99	0.26
CC(=O)NC1(C(F)(F)F)C(=O)Nc2c1c(=O)[nH]c(=O)n2-c1ccccc1 (stereo not given)	0.23	-0.2
Nc1cc(C(=O)N/N=C/c2cccc([N+](=O)[O-])c2)n[nH]c1=O	0.15	-1.2
CCn1nc(C(=O)O)c(=O)c2cc3c(cc21)OCO3	0.85	0.62
N/C(=N\OC(=O)COc1ccc(Cl)cc1Br)c1cccnc1	0.17	0.47
COc1ccccc1Nc1nc2nonc2[nH]c1=O	1.9	-0.38
Cn1c(CC(=O)Nc2ccccc2F)nnc1SCC(=O)Nc1nccs1	0.51	0.08
CC(=O)c1cccc(NC(=O)CN2CCc3cc4c(cc3C2C)OCCCO4)c1 (stereo not given)	1.6	0.37
C/C(=N\N1CCN(c2ccc(Cl)cc2)CC1)c1cccs1	0.39	-0.8
CCOC(=O)C1CCCN(C(=O)C(=O)Nc2ccc3nc4n(c(=O)c3c2)CCCCC4)C1 (stereo not given)	1.9	0.41
COc1cc(C2CC(=O)Oc3c(C(CCN4CCCC(C)C4)c4ccc(N(C)C)cc4)c(OC)cc(OC)c32)cc(OC)c1OC (stereo not given)	1.8	-1.3
CN(CC(=O)Nc1ccc(F)cc1)CC(=O)Nc1ccc(Cl)c(S(=O)(=O)N2CCOCC2)c1	1.1	2.2
COc1cc(C(=O)NCc2ccncc2)cc(Br)c1OCc1ccccc1	3.4	3.3
CC1=C(CC/C(C)=N/NC(N)=S)C(C)(C)CCC1	0.25	1.8
O=C1C(=O)N(CCN2CCOCC2)C(c2ccncc2)/C1=C(/O)c1ccc2c(c1)OCO2 (stereo not given)	0.51	-0.18
COC(=O)/C=C1/S/C(=N/N=C/c2ccc(N(C)C)cc2)NC1=O	1.2	-1.3
CN(CC(=O)Nc1cccc(F)c1)C(=O)c1ccc2c(c1)OCCO2	1.3	-4
CCCCCn1c(=O)c(Cc2ccccc2)c(O)c2ccccc21	0.32	0.11
c1ccc2c(-c3nn4nnnc4c4ccccc34)cccc2c1	0.07	1.4
O=C1c2cc([N+](=O)[O-])ccc2-c2ncccc21	0.07	0.95
CCS(=O)(=O)c1cc([N+](=O)[O-])c(Sc2ccccc2N)s1	0.15	-0.03
CC(C)Oc1cccc(C(=O)Nc2ccc(NC(=O)c3ccco3)cc2)c1	0.53	0.02
CCOc1ccc(/C=C2/C(=N)N3OC(C)=CC3=NC2=O)cc1OC	0.21	-1.1
COc1ccccc1/C=C/C(=O)NC(=S)N1CCN(C)CC1	2	0.74
CCOC(=O)N1CCN(c2nc3c(C)cccn3c(=O)c2C=O)CC1	0.69	-0.58
O=C(CSc1nnc(NC(=O)C2CC(=O)N(c3ccc(F)cc3)C2)s1)NC1CCCC1 (stereo not given)	0.06	1.3
CCC(C)n1c(=N)c(C#N)cc2c(=O)n3ccccc3nc21 (stereo not given)	0.62	0.73
N#Cc1ccccc1Sc1ccccc1C(=O)OCC(=O)N1CCN(C(=O)c2ccco2)CC1	0.74	-0.09
Cc1sc2ncnc(SCC(=O)NC(=O)c3cccn3C)c2c1C	3.1	0.44
O=C(O)CCC(=O)N1CCc2cc(S(=O)(=O)NCc3cccs3)ccc21	0.55	-0.57
O=C(CSc1ccc(Br)cc1)NCC(c1cccs1)N1CCOCC1 (stereo not given)	6.8*	0.57*
COC(=O)c1ccc(COC(=O)CNS(=O)(=O)c2ccc(C)cc2)cc1	0.65	-0.38
CSc1n[nH]c(NCc2ccc(C)cc2)n1	0.33	-0.46
CCC1(C)NC(=O)N(/N=C/c2cc(OC)c(O)c(OC)c2)C1=O (stereo not given)	0.49	1.5
C/C(=N/NC(=O)c1cccc(N2CCCC2=O)c1)c1ccncc1	0.28	-1.4
O=C(O)[C@H](Cc1ccccc1)NC(=O)N1CCN(c2ccccc2)CC1	1	0.93
CC(=O)Nc1ccc(C(=O)CSc2nnnn2C2CCCC2)cc1	1.4	0.01
O=C(Nn1c(-c2ccncc2)nc2ccccc2c1=O)c1ccccc1Br	0.88	-3.5
